High-throughput results as filed in PubChem.
Vaccinia stage: blocks a specific stage of Vaccinia orthopoxvirus infection, primary screen, cell-based, single point; Vaccinia-infected cells, mCherry/Venus stage reporter fluorescence; stronger effect = lower value; some inactives read as strong as hits; activity change (mCherry), % (no concentration beside the values); 89,000 compounds, 0.01% hits;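 active means mCherry past -33% and 40 or more points under the early reporter, replicates agreeing; inconclusive means past -33% without that gap or agreement; tested in A549 cells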;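 further: scaled between vehicle wells and reference inhibitor wells; 23 nL library stock went into each well; one replicate is shown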
Vaccinia stage Venus: further read-out of Vaccinia stage, marked with its call; activity change (Venus), %; measured here: Venus reporter, other viral stage;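 negative = less Venus signal; first of two replicates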
* hit, by the source's call; & = joins results of further samples. A portion of the library; count on the stated rates, not on these rows.

Start of the listing, in advance (eight entries):
C[C@@H]1CN([C@H](C)CO)C(=O)c2c(c3ccccc3n2C)-c2ccccc2CO[C@H]1CN(C)Cc1ccc(Oc2ccccc2)cc1 was read as Vaccinia stage inconclusive.
For O=C(O)C[C@@H]1CC[C@H]2[C@@H](COC[C@@H](O)CN2S(=O)(=O)c2ccc(F)cc2)O1 the results were Vaccinia stage 15 and Vaccinia stage Venus 6.
`COc1ccc(S(=O)(=O)N(C)C[C@@H]2OCCCC[C@@H](C)Oc3ccc(NS(C)(=O)=O)cc3C(=O)N([C@H](C)CO)C[C@@H]2C)cc1` gave Vaccinia stage 18 and Vaccinia stage Venus 12.
COCC(=O)N[C@@H]1CC[C@@H](CC(=O)N2CCCCC2)O[C@H]1CO was read as Vaccinia stage 10 and Vaccinia stage Venus 9.
Screening COC(=O)C[C@@H]1C=C[C@@H](NC(=O)c2ccccc2)[C@@H](CO)O1 returned Vaccinia stage -2 and Vaccinia stage Venus 7.
Cc1ccccc1-c1ccc([C@H]2[C@@H](CO)N3CCCCN(C(=O)c4cccnc4)C[C@@H]23)cc1 was read as Vaccinia stage -8 and Vaccinia stage Venus -5.
For CCCN(C)C[C@@H]1OCCCC[C@H](C)Oc2ccc(NC(=O)c3ccccc3)cc2C(=O)N([C@@H](C)CO)C[C@@H]1C the results were Vaccinia stage inconclusive.
C[C@@H]1CN([C@H](C)CO)C(=O)CCCn2cc(nn2)CO[C@@H]1CN(C)Cc1ccc2c(c1)OCCO2 was read as Vaccinia stage 0 and Vaccinia stage Venus 1.

Results, repeating the preview:
C[C@@H]1CN([C@H](C)CO)C(=O)c2c(c3ccccc3n2C)-c2ccccc2CO[C@H]1CN(C)Cc1ccc(Oc2ccccc2)cc1 was read as Vaccinia stage inconclusive.
For O=C(O)C[C@@H]1CC[C@H]2[C@@H](COC[C@@H](O)CN2S(=O)(=O)c2ccc(F)cc2)O1 the results were Vaccinia stage 15 and Vaccinia stage Venus 6.
`COc1ccc(S(=O)(=O)N(C)C[C@@H]2OCCCC[C@@H](C)Oc3ccc(NS(C)(=O)=O)cc3C(=O)N([C@H](C)CO)C[C@@H]2C)cc1` gave Vaccinia stage 18 and Vaccinia stage Venus 12.
COCC(=O)N[C@@H]1CC[C@@H](CC(=O)N2CCCCC2)O[C@H]1CO was read as Vaccinia stage 10 and Vaccinia stage Venus 9.
Screening COC(=O)C[C@@H]1C=C[C@@H](NC(=O)c2ccccc2)[C@@H](CO)O1 returned Vaccinia stage -2 and Vaccinia stage Venus 7.
Cc1ccccc1-c1ccc([C@H]2[C@@H](CO)N3CCCCN(C(=O)c4cccnc4)C[C@@H]23)cc1 was read as Vaccinia stage -8 and Vaccinia stage Venus -5.
For CCCN(C)C[C@@H]1OCCCC[C@H](C)Oc2ccc(NC(=O)c3ccccc3)cc2C(=O)N([C@@H](C)CO)C[C@@H]1C the results were Vaccinia stage inconclusive.
C[C@@H]1CN([C@H](C)CO)C(=O)CCCn2cc(nn2)CO[C@@H]1CN(C)Cc1ccc2c(c1)OCCO2 was read as Vaccinia stage 0 and Vaccinia stage Venus 1.
`COc1ccccc1CNC(=O)C[C@@H]1C[C@@H]2c3cc(NC(=O)Nc4ccccc4F)ccc3O[C@@H]2[C@@H](CO)O1` gave Vaccinia stage 4 and Vaccinia stage Venus 2.
For O=C(C[C@@H]1CC[C@H](NC(=O)c2cccnc2)[C@H](CO)O1)NCc1ccncn1 the results were Vaccinia stage 0 and Vaccinia stage Venus -7.
COc1cccc(S(=O)(=O)N[C@H]2CC[C@@H](CCn3cc(-c4ccccc4OC)nn3)O[C@@H]2CO)c1 was read as Vaccinia stage -17 and Vaccinia stage Venus -2.
Screening COc1ccc(NC(=O)N(C)C[C@H]2Oc3ccc(NC(=O)CCCCCC(=O)Nc4ccccc4N)cc3C(=O)N([C@H](C)CO)C[C@H]2C)cc1 returned Vaccinia stage 15 and Vaccinia stage Venus 7.
For Cc1noc(C)c1S(=O)(=O)Nc1ccc2c(c1)C(=O)N([C@@H](C)CO)C[C@@H](C)[C@H](CN(C)C(=O)Nc1ccccc1)OCCCC[C@@H](C)O2 the results were Vaccinia stage -6 and Vaccinia stage Venus -8.
`CO[C@@H](CN(C)S(=O)(=O)c1ccc(C)cc1)[C@H](C)CN(Cc1ccccc1Cl)[C@H](C)CO` gave Vaccinia stage inconclusive.
O=c1n(-c2ccccc2)c(=O)n2n1CC(COc1ccccc1)=C1[C@@H](CCc3ccccc3)OB(O)C[C@@H]12 was read as Vaccinia stage -19 and Vaccinia stage Venus -18.
CO[C@@H]1CN(C)C(=O)c2ccc(NC(=O)c3cccnc3)cc2OC[C@@H](C)N(CC2CC2)C[C@H]1C was read as Vaccinia stage -2 and Vaccinia stage Venus 0.
C[C@@H]1CN([C@H](C)CO)C(=O)Cc2cc(NC(=O)CCN3CCOCC3)ccc2O[C@H]1CN(C)C(=O)Nc1ccc(C(F)(F)F)cc1 was read as Vaccinia stage 8 and Vaccinia stage Venus 5.
C[C@H](NC(=O)C[C@@H]1CC[C@H]2[C@@H](COC[C@@H](O)CN2C(=O)Nc2ccccc2)O1)c1ccccc1 was read as Vaccinia stage -1 and Vaccinia stage Venus -8.
`CO[C@@H]1CN(C)C(=O)c2cc(NC(=O)C3CC3)ccc2OC[C@H](C)N(Cc2cncnc2)C[C@@H]1C` gave Vaccinia stage 3 and Vaccinia stage Venus 4.
Screening COCC(=O)N1[C@H](CO)[C@@H](c2ccc(C3=CCCCC3)cc2)[C@@H]1C#N returned Vaccinia stage -10 and Vaccinia stage Venus -9.
For C[C@H]1CN([C@@H](C)CO)S(=O)(=O)c2ccc(-c3cccc(F)c3)cc2O[C@@H]1CN(C)S(=O)(=O)c1ccc(F)cc1 the results were Vaccinia stage inconclusive.
Screening CN1C(=O)c2cc(NC(=O)C3CCC3)ccc2OC[C@@H]2O[C@@H](CC(=O)NCCc3ccncc3)CC[C@H]21 returned Vaccinia stage 9 and Vaccinia stage Venus -4.
Screening c1cc(-c2ccc(C3[C@H]4CNC[C@@H]3N4CC3CC3)cc2)ccn1 (stereo partly specified) returned Vaccinia stage 17 and Vaccinia stage Venus 6.
`COc1ccc(S(=O)(=O)N(C)C[C@@H]2Oc3ccc(NC(=O)C4CCCCC4)cc3CC(=O)N([C@@H](C)CO)C[C@@H]2C)cc1` gave Vaccinia stage -8 and Vaccinia stage Venus -1.
CO[C@H]1CN(C)C(=O)c2ccc(NC(=O)c3cc(C)on3)cc2OC[C@@H](C)N(C)C[C@@H]1C was read as Vaccinia stage 9 and Vaccinia stage Venus 12.
Screening C[C@H]1CN([C@@H](C)CO)C(=O)Cc2cc(NC(=O)C3CC3)ccc2O[C@H]1CN(C)Cc1ccccc1 returned Vaccinia stage 22 and Vaccinia stage Venus 24.
For C[C@H]1CN([C@@H](C)CO)C(=O)c2cc(C#Cc3ccccn3)cnc2O[C@@H]1CN(C)C(=O)c1cnccn1 the results were Vaccinia stage 35 and Vaccinia stage Venus 22.
For COc1cccc(NC(=O)N(C)C[C@@H]2Oc3cc(C#Cc4ccccc4)ccc3S(=O)(=O)N([C@H](C)CO)C[C@H]2C)c1 the results were Vaccinia stage -34 and Vaccinia stage Venus -22.
`O=C(N[C@@H]1CC[C@@H](CCNC(=O)C2CCC2)O[C@H]1CO)c1ccccn1` gave Vaccinia stage 0 and Vaccinia stage Venus 7.
Screening C[C@@H]1CN([C@@H](C)CO)C(=O)Cc2cc(NC(=O)C3CCCCC3)ccc2O[C@@H]1CN(C)S(=O)(=O)c1cccs1 returned Vaccinia stage -7 and Vaccinia stage Venus -1.
`C[C@@H]1CN([C@@H](C)CO)C(=O)c2cc(NC(=O)c3ccncc3)ccc2O[C@@H](C)CCCCO[C@@H]1CN(C)S(=O)(=O)c1ccc(F)cc1` gave Vaccinia stage 10 and Vaccinia stage Venus -3.
Screening O=S(=O)(c1cccs1)N1CCCCN2[C@H](CO)[C@H](c3ccc(/C=C/c4ccccc4)cc3)[C@@H]2C1 returned Vaccinia stage inconclusive.
`C[C@@H]1CN([C@@H](C)CO)C(=O)c2cc(Br)cnc2O[C@@H]1CN(C)C(=O)c1cccnc1` gave Vaccinia stage 14 and Vaccinia stage Venus 5.
Screening C[C@@H]1CN([C@@H](C)CO)C(=O)Cc2cc(NS(=O)(=O)c3ccccc3)ccc2O[C@H]1CN(C)CC1CC1 returned Vaccinia stage 20 and Vaccinia stage Venus 9.
`COc1ccc(S(=O)(=O)Nc2ccc3c(c2)C(=O)N([C@@H](C)CO)C[C@H](C)[C@@H](CN(C)S(C)(=O)=O)OCCCC[C@@H](C)O3)cc1` gave Vaccinia stage 1 and Vaccinia stage Venus -7.
`C[C@@H]1CCCCO[C@H](CN(C)S(=O)(=O)c2cn(C)cn2)[C@H](C)CN([C@@H](C)CO)C(=O)c2cc(NC(=O)Nc3ccc(F)cc3)ccc2O1` gave Vaccinia stage 21 and Vaccinia stage Venus 0.
Screening C[C@@H]1CCCCO[C@H](CN(C)CC2CCCCC2)[C@H](C)CN([C@@H](C)CO)C(=O)c2cc(NC(=O)Nc3cccc4ccccc34)ccc2O1 returned Vaccinia stage inconclusive.
`C[C@H]1CN([C@@H](C)CO)C(=O)c2cc(NC(=O)Nc3ccc(F)cc3)ccc2O[C@@H]1CN(C)Cc1ccc(C(=O)O)cc1` gave Vaccinia stage 32 and Vaccinia stage Venus 16.
CCCNC(=O)N(C)C[C@H]1Oc2cc(C#CCOC)ccc2S(=O)(=O)N([C@@H](C)CO)C[C@H]1C was read as Vaccinia stage 3 and Vaccinia stage Venus -1.
Screening C/C=C/c1ccc([C@@H]2[C@H](CO)N3C(=O)CN(Cc4ccccc4)C[C@@H]23)cc1 returned Vaccinia stage 7 and Vaccinia stage Venus 7.
Screening COc1ccc(CN(C)C[C@H]2Oc3ccc(NS(C)(=O)=O)cc3C(=O)N([C@H](C)CO)C[C@H]2C)cc1 returned Vaccinia stage 27 and Vaccinia stage Venus 13.
For N#C[C@@H]1[C@H](c2ccc(C3=CCCCC3)cc2)[C@@H](CO)N1S(=O)(=O)c1ccccc1 the results were Vaccinia stage -15 and Vaccinia stage Venus -10.
For C[C@H](CO)N1C[C@H](C)[C@H](CN(C)S(=O)(=O)c2ccc(F)cc2)OCCCC[C@H](C)Oc2ccc(NC(=O)c3ccncc3)cc2C1=O the results were Vaccinia stage -13 and Vaccinia stage Venus -12.
COc1ccc(NC(=O)N(C)C[C@@H]2Oc3c(NC(=O)c4ccc(-c5nccs5)cc4)cccc3C(=O)N([C@H](C)CO)C[C@@H]2C)cc1 was read as Vaccinia stage 13 and Vaccinia stage Venus 6.
Screening CC=Cc1ccc2n(c1=O)C[C@@H]1[C@@H](CO)[C@H](C(=O)N[C@@H](C)c3ccccc3)[C@H]2N1Cc1ccccc1 (mixture of isomers) returned Vaccinia stage -16 and Vaccinia stage Venus -11.
For CCCNC(=O)[C@H]1[C@H](CO)[C@H]2Cn3c(cccc3=O)[C@H]2N1CC1CCCCC1 the results were Vaccinia stage 21 and Vaccinia stage Venus 22.
For C[C@@H]1CN([C@H](C)CO)C(=O)c2cc(NS(C)(=O)=O)ccc2O[C@@H](C)CCCCO[C@H]1CN(C)C(=O)C1CCCCC1 the results were Vaccinia stage 20 and Vaccinia stage Venus 14.
`CCC(=O)Nc1ccc2c(c1)OC[C@H](C)N(C(=O)c1ccncc1)C[C@@H](C)[C@H](OC)CN(C)C2=O` gave Vaccinia stage 7 and Vaccinia stage Venus 7.
`COc1ccc(NC(=O)Nc2ccc3c(c2)CC(=O)N([C@@H](C)CO)C[C@@H](C)[C@H](CN(C)S(=O)(=O)c2c(C)noc2C)O3)cc1` gave Vaccinia stage 12 and Vaccinia stage Venus 23.
Screening COc1ccc(CN(C)C[C@@H]2Oc3ccc(NS(=O)(=O)c4ccc(F)cc4)cc3C(=O)N([C@@H](C)CO)C[C@H]2C)cc1 returned Vaccinia stage 9 and Vaccinia stage Venus 1.
`C[C@@H]1CCCCO[C@@H](CN(C)C(=O)CCCN(C)C)[C@H](C)CN([C@H](C)CO)C(=O)c2cc(NC(=O)Nc3cccc4ccccc34)ccc2O1` gave Vaccinia stage 0 and Vaccinia stage Venus -1.
For C[C@@H]1CN([C@H](C)CO)C(=O)c2cc(-c3ccc(F)cc3)cnc2O[C@H]1CN(C)C(=O)Cc1ccccn1 the results were Vaccinia stage 3 and Vaccinia stage Venus 1.
For O=C(C[C@H]1CC[C@@H]2NC[C@H](O)COC[C@H]2O1)Nc1ccc(-c2ccccc2)cc1 the results were Vaccinia stage -25 and Vaccinia stage Venus -20.
`O=C(C1CCCC1)N1C[C@H]2[C@@H](c3ccccc31)[C@@H](CO)N2C(=O)c1ccccc1F` gave Vaccinia stage 21 and Vaccinia stage Venus 15.
For COc1ccccc1CNC(=O)C[C@H]1C=C[C@@H](NC(C)=O)[C@@H](CO)O1 the results were Vaccinia stage 5 and Vaccinia stage Venus 9.
`Cc1ccc(S(=O)(=O)N[C@@H]2CC[C@@H](CCNC(=O)c3ccc4c(c3)OCO4)O[C@@H]2CO)cc1` gave Vaccinia stage -10 and Vaccinia stage Venus -8.
For C[C@H](CO)N1C[C@H](C)[C@@H](CN(C)C(=O)Nc2ccccc2F)Oc2ncc(-c3ccc(F)cc3)cc2C1=O the results were Vaccinia stage 1 and Vaccinia stage Venus 0.
COCC(=O)N1CCC2(CC1)CN(C(=O)Cc1ccccc1)[C@@H](CO)c1c2c2ccc(OC)cc2n1C was read as Vaccinia stage 7 and Vaccinia stage Venus 1.
For Cn1cnc(S(=O)(=O)N2C[C@@H]3N[C@H](C2)C3c2ccc(/C=C/c3ccccc3)cc2)c1 (stereo partly specified) the results were Vaccinia stage -25&8 and Vaccinia stage Venus -15&3.
`C[C@H](CO)N1C[C@H](C)[C@@H](CN(C)C(=O)Nc2cccc3ccccc23)Oc2ccc(NC(=O)Nc3ccccc3)cc2C1=O` gave Vaccinia stage 13 and Vaccinia stage Venus 12.
`CCCNC(=O)C[C@H]1CC[C@H]2[C@@H](COC[C@@H](O)CN2C(=O)c2ccc(F)cc2)O1` gave Vaccinia stage 18 and Vaccinia stage Venus 10.
